Source: PubChem BioAssay
Biofilm kill mix: mixtures killing C. albicans biofilm; inhibition, % at 7.6 µM; actives 0.02% (n = 120,000); C. albicans biofilm persisters + clotrimazole, fluorescence viability; primary screen in compound mixtures of four per well;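 active means inhibition above 30.3% in the primary screen of four-compound pools, then above 30% when the compound was retested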;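 further: compounds exposed to preformed 24 h biofilms for 48 h; the number belongs to the whole pool; some results filed as inactive read as strong as hits; inactives centre near 12; 0% = biofilm with clotrimazole alone and 100% = kill control; retested singly at about 60 µM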
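Incubation: 24 h biofilm formation, then 48 h compound exposure, 37 °C | Material: C. albicans biofilms | Buffer or medium: RPMI/MOPS medium, pH 7.0 | Measured by: 2-h Alamar Blue fluorescence, 535/590 nm excitation/emission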
An asterisk follows results filed as active.

SMILES	Biofilm kill mix
O=C(N/C(=C\c1ccco1)C(=O)N1CCOCC1)c1ccco1	5.6
COc1ccc([N+](=O)[O-])cc1NC(=O)COC(=O)C=C(C)C	11.4
O=C(COC(=O)[C@H](Cc1ccccc1)NC(=O)c1cccs1)NC1CCCCC1	15.9
Cc1ccc(-c2c(C)sc3ncn(CC(=O)N4CCOCC4)c(=O)c23)cc1C	26.4
Cc1nc(SCC(=O)O)n[nH]1	16.0
CCc1nnc(NC(=O)CCN(c2ccc(C)cc2)S(=O)(=O)c2ccccc2)s1	10.1
CCN(CC)CCC(=O)c1ccc(F)cc1	-0.4
Cc1oc(-c2ccc(C(F)(F)F)cc2)nc1CN(Cc1ccccn1)C[C@@H]1CCC(=O)N1	19.4
CSc1ncccc1C(=O)Nc1ccc(F)c(F)c1F	-6.5
Cc1nc2c(cc1C(=O)N/N=C/c1ccc(O)c(O)c1)c(=O)n(C)c(=O)n2C	3.3
COc1ccc(NC(=O)C/C(C)=N/NC(=O)c2cnccn2)cc1	16.1
CCc1ccc(OCC(O)CN2CCC(CN3C(=O)c4cccc5cccc(c45)C3=O)CC2)cc1 (stereo not drawn)	17.7
C=CCNC(=S)/C(=C(/[O-])c1ccc([N+](=O)[O-])cc1)[n+]1ccccc1	6.2
O=C(Nc1ccc(-c2noc(-c3ccccc3F)n2)cc1)c1cccs1	20.8
N/C(=N\OC(=O)CCCN1C(=O)c2ccccc2C1=O)c1ccccn1	8.3
Cc1cccc(NC(=S)/N=C(\N)Nc2nc(C)c3cc(C)ccc3n2)c1	13.8
Cc1nc(SCC(=O)NCc2cccs2)nc(C)c1C	2.0
COc1ccccc1NS(=O)(=O)c1cccc(NC(=O)c2cc3ccccc3oc2=O)c1	-7.1
c1ccc(CSc2ncnc3sccc23)cc1	8.4
O=C(CCc1ccccc1)Nc1ccc(S(=O)(=O)N2CCOCC2)cc1	28.3

Compounds shown so far that contain a thiophene ring, fused or not (5):
SMILES	Biofilm kill mix
O=C(COC(=O)[C@H](Cc1ccccc1)NC(=O)c1cccs1)NC1CCCCC1	15.9
Cc1ccc(-c2c(C)sc3ncn(CC(=O)N4CCOCC4)c(=O)c23)cc1C	26.4
O=C(Nc1ccc(-c2noc(-c3ccccc3F)n2)cc1)c1cccs1	20.8
Cc1nc(SCC(=O)NCc2cccs2)nc(C)c1C	2.0
c1ccc(CSc2ncnc3sccc23)cc1	8.4

Additional results:
SMILES	Biofilm kill mix
CCOC(=O)c1nnsc1Nc1ccc(C)c(C)c1	10.9
COC(=O)CSc1nc2[nH]ncc2c(=O)[nH]1	-1.8
CCOC(=O)C1=C(C)OC(N)=C(C#N)C1c1cc(SCC)oc1C (stereo not drawn)	-3.6
O=[N+]([O-])c1ccc(F)cc1OCc1nc(-c2cccs2)no1	13.2
CCS(=O)(=O)N1Cc2ccccc2CC1C(=O)Nc1nc2c(C)cccc2s1 (stereo not drawn)	11.7
S=C1NC2=C(CCCC2)C2(CCCCC2)N1	15.1
COc1ccccc1CNC(=O)C1Cc2ccccc2C(=O)O1 (stereo not drawn)	9.2
O=C(CC1C(=O)NCCN1CC(c1ccccc1)c1ccccc1)NCCc1cn[nH]c1 (stereo not drawn)	10.9
COC(=O)CCC(=O)NNC(=O)CCC(=O)Nc1cccc(Cl)c1C	8.3
CC12CCC(C(=O)N(NC(=O)c3ccccc3Cl)C1=O)C2(C)C (stereo not drawn)	13.1

Structures listed so far that contain a nitro group on carbon, in the order listed:
SMILES	Biofilm kill mix
COc1ccc([N+](=O)[O-])cc1NC(=O)COC(=O)C=C(C)C	11.4
C=CCNC(=S)/C(=C(/[O-])c1ccc([N+](=O)[O-])cc1)[n+]1ccccc1	6.2
O=[N+]([O-])c1ccc(F)cc1OCc1nc(-c2cccs2)no1	13.2

Further records:
SMILES	Biofilm kill mix
COc1cc(Nc2ncnc(N)n2)cc(OC)c1OC	14.9
COc1ccc(N(CCCN2C(=O)c3cccc4cccc(c34)C2=O)C(=O)c2cccs2)cc1	15.8
Cc1cc(-c2ccccc2)n2ncc(-c3ccccc3)c2n1	16.4
Cc1ccc(C)c(-c2cc(C(=O)NNC(=S)NCC(C)C)c3ccccc3n2)c1	15.0
COc1cccc(-n2c(SCC(=O)N3CCCCC3)nc3c([nH]c4ccccc43)c2=O)c1	16.0
CC1CCC2(CC1)OCC1(CCC3(COC4(CCC(C)CC4)OC3)C1=O)CO2 (stereo not drawn)	8.1
COc1cc(C(=O)NCc2ccccc2)cc(Br)c1OC	17.3
C/C(=N/NC(=O)CNC(=O)c1ccncc1)c1ccco1	37.0
CCN1CSC(=S)N(Cc2ccc(OC)cc2)C1	15.3
CCC1=C(OC(=O)N(CC)CC)N2C(=O)OC(=NCc3ccccc3)[C@]2(C)[C@H]2C1=CC[C@H]1C(=O)N(CC(=O)OC)C(=O)[C@H]12	7.3
CCOC(=O)c1sc2ccccc2c1NC(=O)c1coc2ccccc2c1=O	6.6
CC(C)[N+]1=C2C=CC=CC=C2SC12C([N+](=O)[O-])=CC(=[N+]([O-])[O-])C=C2[N+](=O)[O-] (stereo not drawn)	24.3
COc1ccc(NS(=O)(=O)c2ccc(N3CCOCC3)c(NC(=O)c3ccc(OC)cc3)c2)cc1	13.1
O=C(NNC(=O)C1[C@H]2CCCC[C@@H]12)c1ccc(=O)oc1 (stereo partly drawn)	4.8
O=C(NP(=O)(N1CCCC1)N1CCCC1)C1=C(N2CCOCC2)/C(=C/c2cccc([N+](=O)[O-])c2)CC1	17.0
CC(C)Cn1c(N)c(C(=O)CSc2ccccc2)c(=O)n(C)c1=O	18.8
Cc1ccccc1NC(=O)CC1c2ccccc2CC(C)(C)N1C (stereo not drawn)	2.5
COc1ccc(NC(=S)NCCc2c(C)[nH]c3ccc(OC)cc23)cc1	9.4
O=c1[nH]c2ccccc2n1CCCN1CCN(C(c2ccccc2)c2ccccc2)CC1	13.7
CCCCCc1nnc(NC(=O)Cn2cnc3ccccc3c2=O)s1	10.8
O=C(c1ccc(Cl)cc1)N1CCCC(C(=O)N2CCc3ccccc3C2)C1 (stereo not drawn)	21.5
Cc1onc(-c2c(Cl)cccc2Cl)c1C(=O)c1ccc(F)cc1	21.0
CCOC(=O)c1[nH]cnc1C(=O)NC(C)C	13.4
CSc1ccccc1C(=O)N1CCc2ccccc2C1	6.6
C/C(=N\S(=O)(=O)c1ccc(C)cc1)Nc1cc(C(C)C)c(O)cc1C	-4.7
COc1ccc(C(=O)/C=C/C(=O)N(CC(=O)NC2CCCCC2)CC2CCCO2)c(O)c1 (stereo not drawn)	7.0
COc1ccc2nc(Nc3nc4cc5c(cc4s3)OCCO5)sc2c1	0.4
Cc1cccc(NC(=O)C(=O)NCCCc2ccccc2)c1	8.2
CC(=O)Nc1ccc2c(COC(=O)[C@H](C)N3C(=O)C4CCCCC4C3=O)cc(=O)oc2c1 (stereo partly drawn)	12.7
COc1ccc(OC)c(-c2csc(N(Cc3ccco3)C(=O)c3ccco3)n2)c1	13.0
CC(C)n1c(-c2cccs2)nc2ccccc21	11.2
COC(=O)c1sc2ncn(N)c(=O)c2c1C	13.5
O=C(NCCc1c[nH]c2ccccc12)C(=O)NCC1OCCN1S(=O)(=O)c1ccc(F)cc1 (stereo not drawn)	21.2
N#Cc1nccnc1S(=O)(=O)c1cccs1	20.1
COC(=O)c1ccc(-n2c(C)cc(C(=O)COC(=O)CNS(=O)(=O)c3ccc(C)cc3)c2C)cc1	13.3
COc1ccc(C(=O)Oc2coc(CSc3nnc(NC(=O)c4cccs4)s3)cc2=O)cc1	0.3
CCOC(=S)SCC(=O)N1CCc2cc(OC)ccc2C1C1C(=O)CCCC1=O (stereo not drawn)	12.7
COc1ccc(C(=O)C2C(c3ccc(-c4ccccc4[N+](=O)[O-])o3)NC(=O)NC2(O)C(F)(F)F)cc1 (stereo not drawn)	17.8
N#CC1=C(S)N(c2ccccc2)C(c2ccc(-c3ccc(Cl)c(Cl)c3)o2)NC1=O (stereo not drawn)	11.9
CNC(=S)NNc1nncc2ccccc12	21.6

Random excerpt: four compounds from above, in no set order.
SMILES	Biofilm kill mix
N#CC1=C(S)N(c2ccccc2)C(c2ccc(-c3ccc(Cl)c(Cl)c3)o2)NC1=O (stereo not drawn)	11.9
COc1ccc(C(=O)C2C(c3ccc(-c4ccccc4[N+](=O)[O-])o3)NC(=O)NC2(O)C(F)(F)F)cc1 (stereo not drawn)	17.8
CNC(=S)NNc1nncc2ccccc12	21.6
COC(=O)c1sc2ncn(N)c(=O)c2c1C	13.5

Later entries.
SMILES	Biofilm kill mix
CS(=O)(=O)NN1C(=O)c2ccccc2NC12CCCC2	15.8
O=C(CC1C(=O)NCCN1C(=O)Nc1ccccc1)Nc1cccc(Cl)c1 (stereo not drawn)	9.3
CC(C)(C)CN1CCNC(=O)C1CC(=O)NCCc1cnn(-c2ccccc2)c1 (stereo not drawn)	57.9
Cc1noc(C)c1COC(=O)CNC(=O)c1cccc(F)c1	11.2
O=C(NC(=S)Nn1cnc2c(cnn2-c2ccccc2)c1=O)c1ccc(Cl)cc1	25.7
CC(C)c1ccccc1-n1c(-c2cccnc2)n[nH]c1=S	3.2
COCCSc1nnc(NC(=O)c2ccc([N+](=O)[O-])cc2)s1	3.6
Cc1ccc(CSc2nc3ccccc3c(=O)[nH]2)cc1	22.1
CC(Sc1nnc(COc2ccc(Cl)cc2)n1Cc1ccccc1)C(=O)O (stereo not drawn)	12.7
N/C(=N\OC(=O)COc1ccccc1Cl)c1ccc(Cl)cc1	16.6
O=C(NC(=S)NC1CCSC1=O)c1ccccc1 (stereo not drawn)	12.8
Cc1ccc2cccc(SCC(=O)NCC#N)c2n1	7.2
CCc1ccc(NC(=O)C(=O)N/N=C(\C)CC(=O)Nc2ccccn2)cc1	14.2
O=C(CSc1ccccn1)N/N=C/C=C/c1ccccc1	15.6
O=C(CSCc1ccc(C(=O)O)cc1)Nc1ccccc1	14.2
CCc1cccc(NC(=O)Cn2cc(C=O)c3ccccc32)c1	-1.3
COc1ccc(N(C(C)=O)c2nc(C)cc(C)c2C#N)c(OC)c1	15.9
c1ccc(-c2nccnc2-c2ccccc2)cc1	14.8
CC(=O)Nc1cccc(NC=C(C#N)C#N)c1	8.0
COC(=O)c1cc(NS(=O)(=O)c2ccc(N3CCOCC3)c([N+](=O)[O-])c2)cc(C(=O)OC)c1	10.0
Cc1cc(C(=O)OCC(=O)Nc2ccc(F)c(F)c2F)c(C)o1	8.9
CS(=O)(=O)c1ccc(Cl)c(NC(=O)COC(=O)c2c(Cl)cccc2Cl)c1	-21.7
O=C(Oc1ccc(N2C(=O)CCC2=O)cc1)c1ccccc1	18.7
CC(=O)NN1C(=O)c2ccccc2NC1c1ccoc1 (stereo not drawn)	10.4
O=C(O)c1ccc(Cl)c(S(=O)(=O)NC(Cc2ccccc2)C(=O)O)c1 (stereo not drawn)	13.6
CCOC(=O)CCCNC(=O)COC(=O)/C=C/c1ccc2c(c1)OCO2	-9.3
Cc1cccc(C2c3[nH]c4ccccc4c3CCN2C(=O)c2cc(CC(C)C)nc(C)n2)n1 (stereo not drawn)	10.4
Cc1c(C#N)sc(C(N)=O)c1C	8.5
Cc1ccc2nc(N3CCOCC3)c3nncn3c2c1	12.4
Cc1ccc(NC(=S)N/N=C/c2c(C)nn(-c3ccccc3)c2N2CCCC2)cc1	17.3
CCOC(=O)c1c(/N=C/c2ccc(C)cc2O)sc2c1CCN(C)C2	23.2
COc1cccc(/C=N/NC(=S)NCc2ccco2)c1OC	6.6
CCN(CC)C(=O)c1cc(Cl)ccc1NC(=O)c1ccco1	21.5
N#C/C(=N/Nc1ccc([N+](=O)[O-])cc1)C(=N)N1CCCCC1	24.7
CC(=O)C1=C(O)CC(c2ccccc2)CC1=NCCc1c(C)[nH]c2ccccc12 (stereo not drawn)	19.4
Clc1ccccc1CN1CCC(Cc2ccccc2)CC1	5.6
Cc1ccc(C(=O)NNC(=O)CSc2nnc(-c3ccccc3)n2Cc2ccccc2)cc1	18.5
COc1ccc(C(C)=O)cc1CSc1nncn1C	10.3
Cc1ccc(C(=O)NCC2CCCO2)cc1[N+](=O)[O-] (stereo not drawn)	18.6
CC1CN(S(=O)(=O)c2cccc(C(F)(F)F)c2)CC(C)O1 (stereo not drawn)	12.0
COc1cc(NC(=O)SC2=NCCS2)cc(OC)c1	12.3
COC(=O)[C@@]1(Cc2ccc(F)cc2)[C@H]2c3cc(C(=O)N(C)C)n(Cc4ccc(OC)c(OC)c4)c3C[C@H]2CN1C(=O)c1ccccc1	13.2
Cc1ccccc1-c1nnn(CC(=O)Nc2ccc3c(c2)OCCO3)n1	-0.9
CCN(CC)c1ccc(/C=N/NC(=O)c2ccc3nc[nH]c3c2)cc1	11.9
CCOc1ccc2ccccc2c1/C=N/NC(=O)CNC(=O)Cc1ccccc1	10.6
O=C(CSc1nc2cccnc2n1Cc1ccccc1)NC1CCCCC1	21.2
Fc1ccccc1/C=N/Nc1nc(-c2ccccn2)nc2ccccc12	16.0
Cc1nc2nc[nH]n2c(=O)c1NS(=O)(=O)c1ccc(F)cc1	13.7
O=C(NCC1OCCc2ccccc21)c1ccc(NC(=O)c2ccc(Cl)cc2)cc1 (stereo not drawn)	12.6
CCOC(=O)N1CCN(C(=O)c2cn(C)c3ccc(S(=O)(=O)N4CCC(C)CC4)cc3c2=O)CC1	18.2

The results go on:
SMILES	Biofilm kill mix
COc1ccc2c(c1OC)C(=O)OC2Nc1nc(-c2ccc(-c3ccccc3)cc2)cs1 (stereo not drawn)	7.8
CC(/C=C/c1ccccc1)=N/NC(=O)c1cc([N+](=O)[O-])cc([N+](=O)[O-])c1	23.2
Cc1nnc(SCC(=O)NNC(=O)c2ccco2)n1-c1ccccc1	28.7
O=C(CCc1nnc(CCC2CCCCC2)o1)NCCc1ccccn1	13.3
COc1ccccc1N/C=C/C(=C(C#N)C#N)N(C)C	-1.9
O=C(CN1CCN(Cc2ccccc2)CC1)NC(c1ccccc1)c1ccccc1	12.6
Cc1cc(C(=O)CN2CCCCC2)c(C)n1-c1ccc(F)cc1	19.2
N#Cc1c2n(c(=S)n(-c3ccccc3)c1=O)CCCCC2	-2.0
O=C(COc1ncnc2cc(Cl)ccc12)c1ccc2c(c1)OCCO2	-5.0
COC(=O)c1cn(Cc2c(C)cc(C)cc2C)nn1	17.2

This is a subset, so the mix of outcomes need not match the whole.
